SARS PLP yeast = blocks SARS-CoV papain-like protease in a yeast assay. S. cerevisiae expressing SARS-CoV PLpro, growth rescue; control for the full effect not named in the record. 0.19% of 330,000 active. Potency, µM (top dose mostly 32.9 µM), for the others: at the highest dose activity, positive = growth rescue. AID 485353; active means well fitted rising curve with a large enough effect; inconclusive means small, poorly fitted or top-dose-only effect; inactive means no such curve, though single readings can be large or run the other way; note: 0% is about no effect; nearly all actives have a fitted effect of over 55% in size; growth read by luminescence after 48 h
RE007 growth inh = less growth of the S. pombe RE007 Vpr strain | S. pombe RE007 Vpr strain, BacTiter-Glo ATP luminescence, 24 h; control for the full effect not named in the record | Potency, µM (titrated, usually from 92.2 µM), inactives show at the highest dose activity change, negative = less growth | 0.21% of 360,000 active | AID 651644; active = well fitted falling curve with a large enough effect; inconclusive = small, poorly fitted or top-dose-only effect; inactive = no such curve, though single readings can be large or run the other way;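 note: % is set by controls: 0 for no effect and ±100 for the full control effect; nearly all actives have a fitted effect of over 50% in size; the assay follows cell death caused by Vpr and the record does not say whether a fall means rescue or toxicity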
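Fission yeast strain RE007, carrying one chromosomally integrated HIV-1 vpr copy, was seeded at OD 0.01 in PMG+AL medium with 23 nL pinned compound. After 24 h at 30 °C and 99% humidity, viability was read by BacTiter-Glo luminescence.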
StopGo reporter = FMDV 2A StopGo reporter, luciferase signal | human cells with a luciferase reporter of 2A StopGo recoding; control for the full effect not named in the record | Potency, µM (top dose mostly 57.9 µM), for the others: at the highest dose signal change, negative = less light | 1.2% of 410,000 active | AID 1159524; active = well fitted falling curve with a large enough effect; inconclusive = small, poorly fitted or top-dose-only effect; inactive = no such curve, though single readings can be large or run the other way; tested in HEK293T cells; note: % is set by controls: 0 for no effect and ±100 for the full control effect; nearly all actives have a fitted effect of over 45% in size; luciferase light after 4 h
Numbers without * were called inactive; [ ] = remark or other dose. Potency is the fitted concentration of half-maximal effect. Some of the compounds tested; count on the stated rates, not on these rows.

Screening CCCCc1nnc(NC(=O)Cc2ccc(S(=O)(=O)N3CCOCC3)s2)s1 returned SARS PLP yeast 3%, RE007 growth inh -9% and StopGo reporter -13%.
For O=C(Nc1ccc(Br)cc1)C1CCCN(C2=NS(=O)(=O)c3ccccc32)C1 (stereo not drawn) the results were SARS PLP yeast 9%, RE007 growth inh 1% and StopGo reporter -17%.
Screening CN(C(=O)COC(=O)c1cc(-c2ccc(Cl)s2)nc2ccccc12)C1CCS(=O)(=O)C1 (stereo not drawn) returned SARS PLP yeast 5%, RE007 growth inh -4% and StopGo reporter -7%.
Screening O=[N+]([O-])c1ccc(CSc2ccc(S(=O)(=O)N3CCCC3)cn2)cc1 returned SARS PLP yeast 2%, RE007 growth inh 3% and StopGo reporter -24%.
Screening CNc1ccc(S(=O)(=O)NCC(=O)OC(C)C(=O)N(C)Cc2ccccc2)cc1[N+](=O)[O-] (stereo not drawn) returned SARS PLP yeast -4%, RE007 growth inh 6% and StopGo reporter 6%.
For COC(=O)C1C(O)=C(C=Nc2ccccc2)C(=O)CC1(C)C (stereo not drawn) the results were SARS PLP yeast 2%, RE007 growth inh 17% and StopGo reporter 0%.
`CN(CC(=O)Nc1ccc(OC(F)(F)F)cc1)C1CCCCC1` gave SARS PLP yeast -2%, RE007 growth inh 0% and StopGo reporter -8%.
`O=C(N/C=C/n1cnc2cc(C(F)(F)F)ccc21)c1ccccc1F` gave SARS PLP yeast 1%, RE007 growth inh -15% and StopGo reporter 2%.
`C=CC[C@@H](CC(=O)OC(C)(C)C)C(=O)OC[C@@H]1CCCN1C(=O)[C@H](CC=C)CC(=O)NCCO` gave SARS PLP yeast 5%, RE007 growth inh 1% and StopGo reporter -15%.
For CCn1nnnc1SCC(=O)N(C)C1CCS(=O)(=O)C1 (stereo not drawn) the results were SARS PLP yeast -4%, RE007 growth inh 5% and StopGo reporter -8%.
For COc1ccccc1C/C(N)=N/OC(=O)c1ccc2c(c1)OCO2 the results were SARS PLP yeast -31%, RE007 growth inh -11% and StopGo reporter 31%[activator].
For COC(=O)C1=C(c2ccc(C(C)=O)cc2)C[C@@H]2CC[C@H]1N2C(=O)NCCOc1ccccc1Cl the results were SARS PLP yeast 9%, RE007 growth inh -18% and StopGo reporter -21%.
For CC(C)(C)OC(=O)N1Cc2[nH]c3ccccc3c2C[C@@H]1C(=O)O the results were SARS PLP yeast 1%, RE007 growth inh 3% and StopGo reporter -14%.
COc1ccc([C@H]2CC(=O)C=C(c3cc(F)ccc3OC)C2)cc1 was read as SARS PLP yeast 4%, RE007 growth inh -7% and StopGo reporter 3%.
Screening Clc1cccc(Cl)c1COc1ccccc1CNn1cnnc1 returned SARS PLP yeast -7%, RE007 growth inh -9% and StopGo reporter -24%.

Sorted by length of the SMILES (low to high): three of the compounds above
For CCn1nnnc1SCC(=O)N(C)C1CCS(=O)(=O)C1 (stereo not drawn) the results were SARS PLP yeast -4%, RE007 growth inh 5% and StopGo reporter -8%.
COc1ccc([C@H]2CC(=O)C=C(c3cc(F)ccc3OC)C2)cc1 was read as SARS PLP yeast 4%, RE007 growth inh -7% and StopGo reporter 3%.
Screening CNc1ccc(S(=O)(=O)NCC(=O)OC(C)C(=O)N(C)Cc2ccccc2)cc1[N+](=O)[O-] (stereo not drawn) returned SARS PLP yeast -4%, RE007 growth inh 6% and StopGo reporter 6%.

(list continues)
COc1ccc([C@H]2CC(=O)C=C(c3cc(Cl)ccc3C)C2)cc1 was read as SARS PLP yeast -9%, RE007 growth inh 9% and StopGo reporter -22%.
C[C@H](NC(=O)c1nc[nH]c1C(=O)NCc1ccc(CNC(=O)OC(C)(C)C)cc1)C(=O)OCc1ccccc1 was read as SARS PLP yeast 2%, RE007 growth inh -9% and StopGo reporter inconclusive.
Screening CN=C1SC(CC(=O)Nc2ccccc2F)C(=O)N1/N=C/c1ccc(O)c(OC)c1 (stereo not drawn) returned SARS PLP yeast 0%, RE007 growth inh 2% and StopGo reporter -3%.
C=CCn1c(C)cc(C(=O)COC(=O)c2cncc(Br)c2)c1C was read as SARS PLP yeast -1%, RE007 growth inh -23% and StopGo reporter 30%.
C[C@H](CO)N1C[C@H](C)[C@@H](CN(C)S(=O)(=O)c2ccc(F)cc2)Oc2c(NC(=O)Nc3ccc4c(c3)OCO4)cccc2C1=O was read as SARS PLP yeast -27%, RE007 growth inh 15% and StopGo reporter 1%.
CN(C)c1ccc(C(=O)N2CCN(C(=O)C3CCCO3)CC2)cc1 (stereo not drawn) was read as SARS PLP yeast -2%, RE007 growth inh -14% and StopGo reporter -9%.
Screening COc1ccc(-c2sc3ccc(N4CCOCC4)cc3c2C#CCO)cc1 returned SARS PLP yeast -1%, RE007 growth inh 0% and StopGo reporter 16µM*.
CS(=O)(=O)Nc1ccc(C2=NN(S(=O)(=O)c3ccccc3)C(c3cccs3)C2)cc1 (stereo not drawn) was read as SARS PLP yeast -6%, RE007 growth inh 5% and StopGo reporter 4%.
Screening CC(NC(=O)c1ccco1)C(=O)N1CC=C(c2ccccc2)CC1 (stereo not drawn) returned SARS PLP yeast 9%, RE007 growth inh 1% and StopGo reporter -20%.
`CC[C@@]12C(=O)N(c3ccccc3)C(=O)N1[C@H](c1ccc(Br)cc1)[C@@H]1C(=O)N(C(C)(C)C)C(=O)[C@@H]12` gave SARS PLP yeast -2%, RE007 growth inh 14% and StopGo reporter 0%.
Screening O=C(CN1C(=O)NC2(CCc3ccccc32)C1=O)NCc1ccc(Cl)cc1 (stereo not drawn) returned SARS PLP yeast 1%, RE007 growth inh 8% and StopGo reporter -14%.
`C/C(=C\c1ccccc1)C(=O)Nc1ccc(S(=O)(=O)Nc2ncccn2)cc1` gave SARS PLP yeast 6%, RE007 growth inh -7% and StopGo reporter -18%.
`C#CCOCCOCCOCCNc1nc(N2CCN(C(=O)CCCCCCCCCCNC(=O)[C@H](CCCCN)n3cc(C)nn3)CC2)nc(N2CCN(C(=O)CCCCCCCCCCNC(=O)[C@H](CCCN=C(N)N)n3cc(C[C@@H](C)CC)nn3)CC2)n1` gave SARS PLP yeast -13%, RE007 growth inh 12% and StopGo reporter inconclusive.
`O=C(CSc1nc2[nH]ncc2c(=O)n1-c1ccccc1)NCCc1ccccc1` gave SARS PLP yeast 5%, RE007 growth inh 11% and StopGo reporter 10%.
For O=C(NN1C(=O)c2ccccc2C1=O)c1ccncc1 the results were SARS PLP yeast 8%, RE007 growth inh 5% and StopGo reporter -14%.
Screening CC(=O)N1CCC2(CC1)CC(=O)c1cc(OCC(=O)N3CCCC3)ccc1O2 returned SARS PLP yeast 3%, RE007 growth inh -3% and StopGo reporter -15%.
For Cc1ccc(CNC(=O)CSc2nc3ccccc3c(=O)n2CC2CCCO2)cc1 (stereo not drawn) the results were SARS PLP yeast -6%, RE007 growth inh 5% and StopGo reporter -2%.
Screening Cc1cn(-c2cccnc2)c(C)c1CNC[C@H]1O[C@@H](n2cnc3c(N)ncnc32)[C@H](O)[C@@H]1O returned SARS PLP yeast 2%, RE007 growth inh -25% and StopGo reporter 0%.
CCOC(=O)[C@@H]1[C@H]2COc3cc(OC)ccc3[C@H]2N2C(=O)N(c3ccccc3)C(=O)[C@]12C was read as SARS PLP yeast -10%, RE007 growth inh 7% and StopGo reporter 6%.
Screening COc1cc(C#N)ccc1OCC(=O)NCCC1=CCCCC1 returned SARS PLP yeast -4%, RE007 growth inh 3% and StopGo reporter -17%.
Screening O=[N+]([O-])c1ccc(CNCc2cc(Cl)ccc2O)cc1 returned SARS PLP yeast 2%, RE007 growth inh -14% and StopGo reporter 8%.
For CC1CCC(C#N)(N(C)C(=O)CSc2nnc(C3CC3)n2C2CC2)CC1 (stereo not drawn) the results were SARS PLP yeast 1%, RE007 growth inh 8% and StopGo reporter -8%.
O=S(=O)(NCCCN1CCOCC1)c1ccc(F)c(Cl)c1 was read as SARS PLP yeast -1%, RE007 growth inh 1% and StopGo reporter -9%.
`O=S(=O)(/N=C(/Nc1cccnc1Cl)c1ccccc1)c1ccccc1` gave SARS PLP yeast 1%, RE007 growth inh 3% and StopGo reporter -2%.
For CCOc1ccc(NC(=O)CSc2nnc(C3CC3)n2C)cc1S(=O)(=O)N1CCCCC1 the results were SARS PLP yeast -8%, RE007 growth inh -9% and StopGo reporter -17%.
`CC(C)(C)OC(=O)NCCCCCNC(=O)c1nc[nH]c1C(=O)N1CCN(C(=O)OC(C)(C)C)CC1` gave SARS PLP yeast 8%, RE007 growth inh -3% and StopGo reporter -22%.
`CSc1ccc(/C=C/C(=O)OCC(=O)NC2CCS(=O)(=O)C2)cc1` (stereo not drawn) gave SARS PLP yeast -2%, RE007 growth inh -2% and StopGo reporter -21%.
COc1ccc(-c2nc3ccc(Cl)cn3c2NC2CCCCC2)cc1SC1CCCCC1 was read as SARS PLP yeast -4%, RE007 growth inh 7% and StopGo reporter 10%.
Screening CCCCCc1nnc(NC(=O)c2ccc3nc[nH]c3c2)s1 returned SARS PLP yeast 3%, RE007 growth inh -6% and StopGo reporter -7%.
`C[C@H](CO)N1C[C@H](C)[C@@H](CN(C)C(=O)Nc2ccccc2)Oc2c(NS(=O)(=O)c3ccc(F)cc3)cccc2C1=O` gave SARS PLP yeast 0%, RE007 growth inh -2% and StopGo reporter 90%[activator].
CC(=O)Nc1cccc(C(=O)OCC(=O)c2ccc(S(=O)(=O)N3CCCCC3)cc2)c1 was read as SARS PLP yeast -6%, RE007 growth inh 3% and StopGo reporter -18%.
For CNC(=O)c1ccc(NC(=O)C2CCN(S(=O)(=O)c3cccc(C(F)(F)F)c3)CC2)cc1 the results were SARS PLP yeast 1%, RE007 growth inh 1% and StopGo reporter 0%.
CCCCCCSc1ccc([C@@H]2[C@@H]3C(=O)N(C)C(=O)[C@@H]3[C@]3(C(=O)OC)CCCCN23)cc1OC was read as SARS PLP yeast 1%, RE007 growth inh 4% and StopGo reporter -27%.
Screening Cc1ccc(OCCC(=O)OCC(=O)c2ccc3c(c2)NC(=O)CO3)cc1 returned SARS PLP yeast 5%, RE007 growth inh 0% and StopGo reporter -5%.
`O=C(COC(=O)c1ccc(O)cc1)Nc1ccc(S(=O)(=O)N2CCOCC2)cc1` gave SARS PLP yeast -3%, RE007 growth inh -2% and StopGo reporter -14%.
Screening COc1ccccc1C(=O)NCC(=O)OCC(=O)Nc1nnc(-c2ccccc2)o1 returned SARS PLP yeast -6%, RE007 growth inh 4% and StopGo reporter -9%.
CCc1ccc([C@@H]2CC=C(C(=O)O)[C@H](c3ccc(Cl)cc3)N2S(=O)(=O)c2ccc(C)cc2)cc1 was read as SARS PLP yeast 2%, RE007 growth inh 4% and StopGo reporter -14%.
Screening COc1ccc(-c2oc3ccccc3c2C#CC(C)(C)O)cc1 returned SARS PLP yeast 2%, RE007 growth inh -15% and StopGo reporter -10%.
For Cc1cccn2c(=O)c3cc(C(=O)N4CCCCC4C)sc3nc12 (stereo not drawn) the results were SARS PLP yeast 2%, RE007 growth inh 0% and StopGo reporter 51%[activator].
Screening CC1C2=C(CC(C)(C)CC2=O)NC2=C1C(=O)CC(C)(C)C2 returned SARS PLP yeast 0%, RE007 growth inh 2% and StopGo reporter -5%.
`CC(C)CCNC(=O)NC(=O)COC(=O)CNC(=O)C1CCCCC1` gave SARS PLP yeast 0%, RE007 growth inh 1% and StopGo reporter -11%.
CCOC(=O)NN1C(=O)c2ccccc2NC1c1ccccc1F (stereo not drawn) was read as SARS PLP yeast 5%, RE007 growth inh 5% and StopGo reporter -24%.
`CC(C)(OC(=O)c1ccc(C#N)cc1)c1cc2ccccc2c(=O)o1` gave SARS PLP yeast 3%, RE007 growth inh -21% and StopGo reporter -22%.
For Cn1[nH]c(C(F)(F)F)c(C=Nc2ccc(Cl)cc2)c1=O the results were SARS PLP yeast 4%, RE007 growth inh -4% and StopGo reporter -8%.
Screening CCSC1=NCCN1S(=O)(=O)c1ccc(Cl)cc1 returned SARS PLP yeast 1%, RE007 growth inh 7% and StopGo reporter 5%.
For CCNc1ccc(S(=O)(=O)N2CCCCC2)cn1 the results were SARS PLP yeast 2%, RE007 growth inh 3% and StopGo reporter -17%.
Screening Nc1[nH]n(-c2c(Cl)cc(Cl)cc2Cl)c(=O)c1N=Nc1ccc(S(=O)(=O)Nc2ncccn2)cc1 returned SARS PLP yeast 2%, RE007 growth inh 18% and StopGo reporter -6%.
For Cn1c(-c2cnn(-c3ccccc3)c2-n2cccc2)n[nH]c1=S the results were SARS PLP yeast 0%, RE007 growth inh -4% and StopGo reporter -8%.
Screening C=CCC[C@H](Cc1ccc(F)cc1)C(=O)OC[C@H](Cc1c[nH]c2ccccc12)NC(=O)[C@@H](CC=C)CC(=O)N(CCO)Cc1ccccc1 returned SARS PLP yeast -22%, RE007 growth inh -3% and StopGo reporter 40µM*.
For CCOc1ccc(NC(=O)COc2ccc3c(c2)CCC3)cc1OC the results were SARS PLP yeast -9%, RE007 growth inh -13% and StopGo reporter -8%.

Screening data as filed in PubChem BioAssay.
